High-throughput results from PubChem BioAssay.
Sa growth 42C – blocks Staphylococcus aureus growth; S. aureus RN4220 growth, OD600, 20 h, 42 °C; stronger effect = lower value; relative growth, % (test concentration not listed); hit rate 0.53% among 170,000;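 active = growth at 42 °C up to 50% and 20 or more points under that at 30 °C, or under 10% at both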;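 note: 300 nL library stock went into each well; scaled to the means of positive and negative controls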
GIV Gai3 FP – inhibitors of GIV GBA-motif binding to rat Galpha-i3; hit rate 0.42% among 210,000; Galpha-i3/FITC-GIV peptide fluorescence polarization, 90 min; stronger effect = lower value; scaled: aluminum fluoride 0%, vehicle 100%; AID 1224905; P08753; percent of control (FP), % (no concentration beside the values);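 active = replicate mean at 85% of control or lower, very high polarization wells dropped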;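 note: wells of about 15 µL received 100 nL stock; the first replicate is given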
Target sequence (P08753 whole entry, looked up): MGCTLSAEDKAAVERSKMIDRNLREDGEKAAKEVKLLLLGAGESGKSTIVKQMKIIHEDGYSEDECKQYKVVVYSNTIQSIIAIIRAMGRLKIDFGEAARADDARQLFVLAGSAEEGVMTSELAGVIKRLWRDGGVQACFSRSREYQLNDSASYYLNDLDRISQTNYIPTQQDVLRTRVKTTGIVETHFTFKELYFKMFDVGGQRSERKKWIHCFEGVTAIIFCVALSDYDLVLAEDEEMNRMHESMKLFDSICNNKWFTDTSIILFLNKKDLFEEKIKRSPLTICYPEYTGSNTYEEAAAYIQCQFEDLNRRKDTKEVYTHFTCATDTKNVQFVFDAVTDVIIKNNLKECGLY
HCMV UL50-53 inh – disrupts HCMV UL50-UL53 complex binding; HTRF UL50-UL53 interaction, normalized percent inhibition; inhibition, % (test concentration not listed); hit rate 0.15% among 190,000;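 active = both replicates at 50% or more, plus weaker picks with an unusually low signal ratio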;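 note: stock transfer was 100 nL into about 20 µL; 0% = negative control wells and 100% = wells with untagged competitor protein; inactives centre near -12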
Sa growth 42C second temp – also measured in Sa growth 42C; calls as there; relative growth, %; measured here: growth at 30 °C;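 optical density after 20 h as mean of two plates; 100% = untreated growth and lower means inhibition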
Numbers without * were called inactive.

Screening COc1cccc(C2(O)CCN(CC(=O)N3CCCC3)CC2)c1 returned Sa growth 42C 96, GIV Gai3 FP 104, HCMV UL50-53 inh 14 and Sa growth 42C second temp 88.
Screening CCCNC(=O)C1CC(=O)N(c2ccc(C)c(Cl)c2)C1 (stereo not drawn) returned Sa growth 42C 96, GIV Gai3 FP 105, HCMV UL50-53 inh -25 and Sa growth 42C second temp 87.
`CCN1C(=O)c2cccc3c(NC(=O)c4ccncc4)ccc1c23` gave Sa growth 42C 100, HCMV UL50-53 inh -122 and Sa growth 42C second temp 77.
Screening C/C(=N\NC(N)=O)c1cccc(Cl)c1 returned Sa growth 42C 93, HCMV UL50-53 inh -14 and Sa growth 42C second temp 90.
For O=C(NCCc1cnc[nH]1)NC12CC3CC(CC(C3)C1)C2 the results were Sa growth 42C 102, GIV Gai3 FP 106, HCMV UL50-53 inh -30 and Sa growth 42C second temp 94.
Screening Cc1cc(C(Nc2ccccn2)c2ccc3c(c2)OCO3)c(NC(=O)c2ccccc2)s1 (stereo not drawn) returned GIV Gai3 FP 107 and HCMV UL50-53 inh -16.
Screening COCc1cc(C)nc2sc3c(=O)n(-c4cc(C)ccc4C)nnc3c12 returned Sa growth 42C 108, GIV Gai3 FP 103, HCMV UL50-53 inh -34 and Sa growth 42C second temp 89.
`O=C(OCCN1CCCC1=O)c1ccc(F)cc1F` gave Sa growth 42C 98, HCMV UL50-53 inh -16 and Sa growth 42C second temp 97.
For O=c1[nH]nc(SCc2ccc(Cl)cc2Cl)c(=O)[nH]1 the results were Sa growth 42C 90, HCMV UL50-53 inh -9 and Sa growth 42C second temp 89.
`Cc1ccc(SC(=O)c2sc(-c3ccccc3)nc2C)cc1` gave Sa growth 42C 97, GIV Gai3 FP 102, HCMV UL50-53 inh -8 and Sa growth 42C second temp 98.
`Cc1cc(SCC(=O)N2CCN(C)CC2)nc(SCC(=O)N2CCN(C)CC2)n1` gave Sa growth 42C 104, GIV Gai3 FP 104, HCMV UL50-53 inh -22 and Sa growth 42C second temp 95.
Screening CCc1ccccc1N(CC)C(=O)c1cc2c(s1)-c1c(C)cccc1OC2 returned Sa growth 42C 78, GIV Gai3 FP 103 and Sa growth 42C second temp 66.
Screening Clc1ccc(N2CCN(c3ccccc3)CC2)nn1 returned GIV Gai3 FP 106 and HCMV UL50-53 inh -8.
Screening CCOC(=O)C1=C(C)Nc2ncnn2C1c1cccnc1 (stereo not drawn) returned Sa growth 42C 105, GIV Gai3 FP 97 and Sa growth 42C second temp 92.
Screening CCN(C(=O)c1cc(S(=O)(=O)N2CCc3ccccc32)cn1C)c1cccc(C)c1 returned Sa growth 42C 118, GIV Gai3 FP 102, HCMV UL50-53 inh -5 and Sa growth 42C second temp 94.
Screening CSc1nc(NC(=O)NS(=O)(=O)c2ccccc2Cl)nc(C2CC2)n1 returned Sa growth 42C 94, GIV Gai3 FP 109, HCMV UL50-53 inh -4 and Sa growth 42C second temp 86.
Screening Cc1ccc(C(=O)Nc2nc(-c3nnn(-c4cccc(C(F)(F)F)c4)c3C)ns2)cc1 returned Sa growth 42C 98, GIV Gai3 FP 103 and Sa growth 42C second temp 76.
CCc1nn(-c2ccccc2)c2c1CN(C(=O)NCC(=O)OC)C(c1ccccc1)c1cccn1-2 (stereo not drawn) was read as GIV Gai3 FP 102 and HCMV UL50-53 inh -5.
For CC1(C)C=C(c2ccc(C(=O)O)s2)CC(C)(C)N1 the results were Sa growth 42C 97, GIV Gai3 FP 99, HCMV UL50-53 inh -24 and Sa growth 42C second temp 89.
CCS(=O)(=O)N(C)c1ccc(C(=O)Nc2cc(C)ccc2C)cc1 was read as Sa growth 42C 104, GIV Gai3 FP 98, HCMV UL50-53 inh -29 and Sa growth 42C second temp 76.
`CCN1CCN(c2ccc(Cl)cc2NC(=O)C2CCCN2C(=O)c2cccs2)CC1` (stereo not drawn) gave Sa growth 42C 83, HCMV UL50-53 inh -21 and Sa growth 42C second temp 91.
Screening O=C(N/N=C/c1ccc(O)c(O)c1O)c1ccc(NS(=O)(=O)c2ccc(Br)cc2)cc1 returned Sa growth 42C 57, HCMV UL50-53 inh -30 and Sa growth 42C second temp 53.
Screening CCCCN1COc2c(cc(Cl)c3cccnc23)C1 returned Sa growth 42C 1.0*, GIV Gai3 FP 103 and Sa growth 42C second temp 0.5*.
Cc1ccc(C2=Nc3ccccc3N(CC(=O)NC(C)CCc3ccccc3)C(=O)C2)cc1C (stereo not drawn) was read as GIV Gai3 FP 107 and HCMV UL50-53 inh 6.
Screening CCCCOc1cccc(-c2nnc(NC(=O)OC)s2)c1 returned Sa growth 42C 111, GIV Gai3 FP 107, HCMV UL50-53 inh 2 and Sa growth 42C second temp 96.
`Cc1nn(-c2ccccc2)c(C)c1C(=O)NCC1(N(C)C)CCCCC1` gave Sa growth 42C 86, HCMV UL50-53 inh -10 and Sa growth 42C second temp 95.
`CC1=CC(C)(C)N(C(=O)CSc2ncccn2)c2ccc(C)cc21` gave Sa growth 42C 78, GIV Gai3 FP 101, HCMV UL50-53 inh -17 and Sa growth 42C second temp 65.
Screening Cc1c(N(C(=O)Cc2c[nH]c3ccccc23)C2(C(=O)NC3CCCCC3)CCCCC2)c(=O)n(-c2ccccc2)n1C returned GIV Gai3 FP 97 and HCMV UL50-53 inh -14.
For COc1ccc(-c2cc(C3CCN(c4nc(N)c5cc(OC)c(OC)cc5n4)CC3)[nH]n2)cc1OC the results were Sa growth 42C 80, GIV Gai3 FP 102, HCMV UL50-53 inh -9 and Sa growth 42C second temp 59.
Screening COc1ccc2oc(-c3ccccc3)c(C(=O)O)c2c1 returned Sa growth 42C 194, GIV Gai3 FP 110, HCMV UL50-53 inh -15 and Sa growth 42C second temp 102.

Continued; the last 2 above are carried over.
For COc1ccc(-c2cc(C3CCN(c4nc(N)c5cc(OC)c(OC)cc5n4)CC3)[nH]n2)cc1OC the results were Sa growth 42C 80, GIV Gai3 FP 102, HCMV UL50-53 inh -9 and Sa growth 42C second temp 59.
Screening COc1ccc2oc(-c3ccccc3)c(C(=O)O)c2c1 returned Sa growth 42C 194, GIV Gai3 FP 110, HCMV UL50-53 inh -15 and Sa growth 42C second temp 102.
`C[C@]12CCC(=O)C=C1CCC1C2[C@@H](O)C[C@@]2(C)C1CC[C@]2(O)C(=O)COC(=O)CCC(=O)O` (stereo partly drawn) gave Sa growth 42C 91, HCMV UL50-53 inh -10 and Sa growth 42C second temp 89.
Screening O=C1N=C(N2CCOCC2)SC1=C1CCCCC1 returned Sa growth 42C 112, GIV Gai3 FP 98, HCMV UL50-53 inh -8 and Sa growth 42C second temp 63.
For Cc1ccc(C)c(N2CCN(C(=O)c3ccc4c(Cl)c5c(nc4c3)CCCC5)CC2)c1 the results were Sa growth 42C 116, GIV Gai3 FP 99, HCMV UL50-53 inh -38 and Sa growth 42C second temp 86.
For COc1cc(OC)c(OC)cc1/C=C/c1nc2cc3ccccc3cc2c(=O)n1-c1ccc(F)c(Cl)c1 the results were Sa growth 42C 133, GIV Gai3 FP 115 and Sa growth 42C second temp 95.
Screening O=S(=O)(c1ccc(Cl)cc1)N1CN(C2CCCC2)c2nc3ccccc3nc21 returned Sa growth 42C 90, GIV Gai3 FP 102, HCMV UL50-53 inh -33 and Sa growth 42C second temp 80.
For O=C(CSc1n[nH]c2nc3ccccc3n12)c1ccccc1 the results were GIV Gai3 FP 107 and HCMV UL50-53 inh -13.
For CC(C)Cc1csc2ncnc(NCCO)c12 the results were Sa growth 42C 86, HCMV UL50-53 inh -10 and Sa growth 42C second temp 86.
O=C(Nc1nc2ccccc2[nH]1)c1cc(F)c(F)cc1Cl was read as Sa growth 42C 89, HCMV UL50-53 inh -5 and Sa growth 42C second temp 95.
COc1ccc(C(=O)Nc2cc(NC(=O)c3cc4ccc(OC)cc4[nH]3)ccc2OC)cc1 was read as GIV Gai3 FP 98 and HCMV UL50-53 inh -37.
Screening O=C(Nc1nc(-c2cc(Cl)sc2Cl)cs1)c1ccc([N+](=O)[O-])s1 returned GIV Gai3 FP 102 and HCMV UL50-53 inh -4.
For CCCOC(=S)NC1OCC(OC(C)=O)C(OC(C)=O)C1OC(C)=O (stereo not drawn) the results were Sa growth 42C 80, HCMV UL50-53 inh 0 and Sa growth 42C second temp 95.
For O=C(CN1C(=O)S/C(=C\c2ccc(F)cc2)C1=O)Nc1ncc(Cc2ccccc2Cl)s1 the results were GIV Gai3 FP 100 and HCMV UL50-53 inh 0.
COc1ccc(S(=O)(=O)N2CCN(C(=O)Cc3ccsc3)CC2)cc1 was read as Sa growth 42C 88, HCMV UL50-53 inh -18 and Sa growth 42C second temp 94.
O=C(NCCCN1CCOCC1)c1ccc(CS(=O)(=O)Cc2ccc(Cl)cc2)o1 was read as Sa growth 42C 95, GIV Gai3 FP 99, HCMV UL50-53 inh -12 and Sa growth 42C second temp 88.
O=C(/C=C/c1ccco1)NCc1ccco1 was read as Sa growth 42C 111, GIV Gai3 FP 103 and Sa growth 42C second temp 80.
For CC1=CCC2C(=O)N(c3cccc(C(=O)N(C)C4CCCCC4)c3)C(=O)C2C1 (stereo not drawn) the results were Sa growth 42C 93, GIV Gai3 FP 110, HCMV UL50-53 inh -14 and Sa growth 42C second temp 84.
Screening COC(=O)c1cccc(NC(=O)c2ccc(C(C)(C)C)cc2)c1 returned Sa growth 42C 71, GIV Gai3 FP 100, HCMV UL50-53 inh -9 and Sa growth 42C second temp 82.
`COc1ccccc1C(=O)N(Cc1ccco1)Cc1ccccc1F` gave Sa growth 42C 117, GIV Gai3 FP 99, HCMV UL50-53 inh -8 and Sa growth 42C second temp 90.
`O=C(OCC(=O)N1CCCc2ccccc21)c1ccccc1Cl` gave Sa growth 42C 114, HCMV UL50-53 inh -13 and Sa growth 42C second temp 90.
`COc1ccccc1N1CCN(C(=O)c2cnc(N3CCOCC3)c3ccccc23)CC1` gave Sa growth 42C 90, GIV Gai3 FP 107 and Sa growth 42C second temp 89.
Screening Cc1ccc(Nc2nc3nonc3nc2NC2C3CC4CC(C3)CC2C4)cc1C (stereo not drawn) returned Sa growth 42C 47, GIV Gai3 FP 101, HCMV UL50-53 inh -23 and Sa growth 42C second temp 25.
`Cc1ccc(-n2nc(N3CCCN(C(=O)c4ccc(-n5c(C)ccc5C)cc4)CC3)ccc2=O)cc1` gave GIV Gai3 FP 102 and HCMV UL50-53 inh -27.
Cn1ncc(Cl)c1C(=O)O was read as Sa growth 42C 80, GIV Gai3 FP 107, HCMV UL50-53 inh 9 and Sa growth 42C second temp 106.
For O=C(CCN1C(=O)c2cccc([N+](=O)[O-])c2C1=O)NCC1CCCO1 (stereo not drawn) the results were GIV Gai3 FP 102 and HCMV UL50-53 inh -47.
For O=C(NCCSc1c(-c2ccccc2)[nH]c2ccccc12)c1ccc(S(=O)(=O)N2CCOCC2)cc1 the results were Sa growth 42C 97, GIV Gai3 FP 105, HCMV UL50-53 inh -22 and Sa growth 42C second temp 95.
`COc1ccc(CC(=O)c2ccccc2C(=O)O)cc1` gave Sa growth 42C 108, HCMV UL50-53 inh -14 and Sa growth 42C second temp 99.
`N#Cc1cccc(NC(=O)C2CCCC2)c1` gave Sa growth 42C 97, HCMV UL50-53 inh -16 and Sa growth 42C second temp 97.
Screening COc1ccc(CNC(=O)CSc2n[nH]c(-c3ccc(F)cc3)n2)cc1 returned Sa growth 42C 103, GIV Gai3 FP 100 and Sa growth 42C second temp 99.
COCC(C)n1c(COc2ccccc2F)nnc1SC/C(O)=C(\C(=O)OC)c1nc2ccccc2[nH]1 (stereo not drawn) was read as Sa growth 42C 90, HCMV UL50-53 inh -21 and Sa growth 42C second temp 88.
O=c1cc(Cn2nnc(-c3ccccc3)n2)[nH]c(=O)[nH]1 was read as Sa growth 42C 99, HCMV UL50-53 inh -22 and Sa growth 42C second temp 92.
For O=C(/C=C\c1ccc2c(c1)OCO2)NC1CC(=O)N(c2cccc(F)c2)C1 (stereo not drawn) the results were Sa growth 42C 130, GIV Gai3 FP 101 and Sa growth 42C second temp 95.
`CCOc1cc(C)c(Cl)cc1S(=O)(=O)N1CCN(CC)CC1` gave Sa growth 42C 105, GIV Gai3 FP 107, HCMV UL50-53 inh -4 and Sa growth 42C second temp 110.
For N#Cc1c(N)nc2c(c1-c1cccnc1)CCCCCC2 the results were Sa growth 42C 107, GIV Gai3 FP 97, HCMV UL50-53 inh -3 and Sa growth 42C second temp 111.

Grouped by structure, those above containing two or more sulfur atoms
`Cc1ccc(SC(=O)c2sc(-c3ccccc3)nc2C)cc1` gave Sa growth 42C 97, GIV Gai3 FP 102, HCMV UL50-53 inh -8 and Sa growth 42C second temp 98.
`Cc1cc(SCC(=O)N2CCN(C)CC2)nc(SCC(=O)N2CCN(C)CC2)n1` gave Sa growth 42C 104, GIV Gai3 FP 104, HCMV UL50-53 inh -22 and Sa growth 42C second temp 95.
Screening CSc1nc(NC(=O)NS(=O)(=O)c2ccccc2Cl)nc(C2CC2)n1 returned Sa growth 42C 94, GIV Gai3 FP 109, HCMV UL50-53 inh -4 and Sa growth 42C second temp 86.
Screening O=C(Nc1nc(-c2cc(Cl)sc2Cl)cs1)c1ccc([N+](=O)[O-])s1 returned GIV Gai3 FP 102 and HCMV UL50-53 inh -4.
For O=C(CN1C(=O)S/C(=C\c2ccc(F)cc2)C1=O)Nc1ncc(Cc2ccccc2Cl)s1 the results were GIV Gai3 FP 100 and HCMV UL50-53 inh 0.
COc1ccc(S(=O)(=O)N2CCN(C(=O)Cc3ccsc3)CC2)cc1 was read as Sa growth 42C 88, HCMV UL50-53 inh -18 and Sa growth 42C second temp 94.
For O=C(NCCSc1c(-c2ccccc2)[nH]c2ccccc12)c1ccc(S(=O)(=O)N2CCOCC2)cc1 the results were Sa growth 42C 97, GIV Gai3 FP 105, HCMV UL50-53 inh -22 and Sa growth 42C second temp 95.
